# Mtb growth: Mycobacterium tuberculosis H37Rv growth inhibition, cell based, confirmatory dose response (AID 1949); inhibition, % at 10 µg/mL; hits with a dose series show IC50 in µg/mL; actives 1.6% (n = 100,000); M. tuberculosis H37Rv growth inhibition; most inactive calls were filed without a number and no value below 0 was filed;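 active means confirmed in a dose series; inconclusive means about 50% or more but not retested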;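 further: bacteria grown 7 days with compound before Alamar blue readout; 0% = untreated bacteria and 100% = reference antibiotic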
# * hit, by the source's call; i = inactive; ? = inconclusive. A portion of the library; count on the stated rates, not on these rows.
SMILES,Mtb growth
Cc1ccc(C)c(NC(=O)CCN2C(=O)C3CC=C(Cl)CC3C2=O)c1 (stereo not drawn),i
O=C(Nc1ccc2c(c1)OCO2)N1CCN(c2cccc(C(F)(F)F)c2)CC1,i
COc1ccccc1C1C=C(c2ccc(Cl)cc2)Nc2nc(NS(C)(=O)=O)nn21 (stereo not drawn),i
O=C(CC12CC3CC(CC(C3)C1)C2)Nc1ccc(-c2nc3ncccc3o2)cc1,i
CCOC(=O)c1c(-c2ccc(C)s2)csc1N,i
Cc1ccc2c(Cl)c(C(=O)Nc3ccccc3[N+](=O)[O-])sc2c1,i
CCN1C(=O)c2ccc(C(=O)Nc3ccc(C(=O)O)cc3)cc2C1=O,i
Cc1cccc(OCC(=O)Nc2cccc(C(=O)Nc3ccccc3C(=O)O)c2)c1,11.4%
CCOc1cc(CO)ccc1OCc1ccc(C)cc1,i
CCCCN1C(=O)NC(=O)/C(=C\c2ccc(N3CCCC3)cc2)C1=O,i
CC(C)Oc1ccc(OCCCN2C(=O)NC(C)(C)C2=O)cc1,i
Cc1ccc(N(C(=O)COc2ccc(C)cc2C)C2C=CS(=O)(=O)C2)cc1 (stereo not drawn),3.5%
CC(C)CNS(=O)(=O)c1cc(C(=O)O)c(Cl)cc1Cl,i
Cc1ccc(NC(=O)C2CC(=O)n3c(nc4ccccc43)N2)cc1Cl (stereo not drawn),i
CCCCC(=O)Nc1cccc(NC(=S)NC(=O)c2cccc(Cl)c2)c1,5.9%
O=C(C1CCN(Cc2ccccc2F)CC1)N1CCN(C/C=C/c2ccccc2)CC1,i
COc1ccc(Cl)cc1C(=O)Nc1ccccc1-c1nc2ccccc2s1,0.8%
Cc1ccc(NC(=O)c2cc([N+](=O)[O-])ccc2NCc2ccco2)cc1Cl,i
CCOc1ccc2nc(N/C(N)=N/C(=S)Nc3cccc(C)c3)nc(C)c2c1,?
COC(=O)COc1ccc(NC(=O)CSc2ccc(Cl)cc2)cc1,0.77µg/mL*
O=C(c1ccc2c(c1)OCCO2)N1CCN(Cc2ccccc2)CC1,i
O=C(Nc1nnc(SCc2ccc([N+](=O)[O-])cc2)s1)c1ccccc1Br,i
CN1CCN(CC(=O)Nc2ccc(Cl)cc2C(=O)c2ccccc2)CC1,i
C/C=C/c1ccc(OCCCOc2cccc3ccc(C)nc23)c(OC)c1,16.8µg/mL*
O=C1CC(Sc2nnnn2-c2ccccc2)C(=O)N1c1cccc(Cl)c1 (stereo not drawn),i
O=C(NCc1ccccc1)C1COc2ccccc2O1 (stereo not drawn),2.0%
Cc1cc(C(=O)c2ccccc2)ccc1OC(=O)C(C)(C)C,3.0%
CCc1cccc(CC)c1NC(=O)CC(C)c1ccccc1 (stereo not drawn),i
Cc1ccc(C(C)(C)C)c(OCCn2cnc3ccccc3c2=O)c1,5.5%
COc1ccc2nc(Nc3nc(CSc4nnnn4-c4ccccc4)cc(=O)[nH]3)nc(C)c2c1,0.7%
Cc1nc(NC(Cc2c[nH]c3ccccc23)C(=O)O)c2c3c(sc2n1)CCCC3 (stereo not drawn),i
O=C(CCCCC(=O)Nc1ccc2c(c1)OCCO2)Nc1ccc2c(c1)OCCO2,0.3%
CC(C)Oc1ccc(C(=O)Oc2cc(=O)oc3ccccc23)cc1,i
Cc1ccc(-c2nnc(SCC(=O)Nc3ccc(Br)c(C)c3C)o2)cc1,i
COC(=O)C1=C(C)N(C)C(=O)NC1c1cc(Cl)c(O)c(OC)c1 (stereo not drawn),i
CN1CCC(O)(c2cccs2)C(C(=O)c2cccs2)C1 (stereo not drawn),1.54µg/mL*
Cc1ccc(NC(=O)CN2CCCCC2)cc1C,i
Cc1ccc([N+](=O)[O-])cc1NC(=O)C1CC(Cl)=CCC1C(=O)O (stereo not drawn),i
CCCc1cc(=O)oc2cc(OCC(=O)Nc3ccc4c(c3)OCCO4)ccc12,i
COC(=O)CN1C(=O)C2C3CCC(C3)C2C1=O (stereo not drawn),i
O=C(Nc1ccccn1)c1cccc(S(=O)(=O)N2CCOCC2)c1,i
O=C1NN(c2cccc(Cl)c2)C(=O)/C1=C\c1ccc(-c2ccc(Br)cc2)o1,48.3%
Cc1cc(C)cc(C(=O)N2CCN(c3ccccc3)CC2)c1,0.2%
COc1cc(OC)cc(-c2nnc(SCC(=O)Nc3ccccc3)s2)c1,i
COC(=O)c1c(NC(=S)NCc2cccs2)sc(C)c1-c1ccccc1,i
CCCCC(=O)C1C(=O)CC(c2ccccc2)C(C(=O)OC)C1=O (stereo not drawn),i
Cc1c(OC(=O)N2CCOCC2)ccc2c(=O)c(-c3nc4ccccc4s3)coc12,i
S=C(NC1CCCC1)N1CCN(c2cccc(Cl)c2)CC1,1.1%
O=C(Nc1ccc(Cl)cc1C(=O)N1CCCC1)c1ccc(Cl)cc1Cl,i
CCCN(CCC)C(=O)CSc1nc2sc3c(c2c(=O)[nH]1)CCCC3,i
O=C1CC(c2ccccc2)c2cc(Br)ccc2O1 (stereo not drawn),i
O=C(NNC(=S)Nc1ccccc1C(F)(F)F)c1ccc(Br)o1,i
Cc1cc(NC(=O)CCc2ccccc2)c([N+](=O)[O-])cc1C,4.0%
Cn1cnc2cc(NS(=O)(=O)c3ccc(Br)cc3)ccc21,i
CC1(C)C2CCC1(C)C(NCc1ccccc1O)C2 (stereo not drawn),3.5%
CCN1C(=O)CC(NCc2ccc3c(c2)OCO3)C1=O (stereo not drawn),0.3%
Cn1c(SCc2ccc(Cl)c(Cl)c2)nnc1-c1ccccc1,3.3%
COc1ccc(CCNC(=O)c2ccc(C)c(S(=O)(=O)Nc3ccccc3C)c2)cc1OC,2.0%
CCOc1ccccc1C(=O)Nc1ccccc1O,8.93µg/mL*
COC(=O)C1=CN(Cc2cccs2)C=C(C(=O)OC)C1c1ccc(F)cc1,i

# Quoted at random: three compounds from above.
SMILES,Mtb growth
COc1ccc(CCNC(=O)c2ccc(C)c(S(=O)(=O)Nc3ccccc3C)c2)cc1OC,2.0%
CCN1C(=O)CC(NCc2ccc3c(c2)OCO3)C1=O (stereo not drawn),0.3%
CCCN(CCC)C(=O)CSc1nc2sc3c(c2c(=O)[nH]1)CCCC3,i

# (more compounds)
SMILES,Mtb growth
COc1ccc(CC(=O)NCc2nnc(SCC(=O)Nc3sc4c(c3C#N)CCC(C(C)(C)C)C4)n2C)cc1 (stereo not drawn),0.3%
CCOCCCNC(=O)c1ccc(C)c(C)c1,i
Cc1ccc(S(=O)(=O)N(CC(=O)Nc2ccccc2C(=O)NC(C)C)c2cc(C)cc(C)c2)cc1,i
O=C(Cc1ccc2c(c1)CCCC2)NC1CCCCC1,i
COC(=O)CSc1nnc(C2COc3ccccc3O2)n1-c1ccccc1 (stereo not drawn),18.8%
CC(=O)c1cnc2c(-c3cccc(Br)c3)cnn2c1C,i
CC(C)(C)c1cc(C(F)(F)F)c2c(N)c(C(=O)NC3CC3)sc2n1,i
COc1ccc(CCNS(=O)(=O)c2cc(/C=C/C(=O)O)ccc2OC)cc1OC,i
O=C(Nc1cccc(-c2cn3cccnc3n2)c1)c1ccccc1I,1.9%
Cc1ccc(NC(=O)c2ccccc2OCC(=O)NC23CC4CC(CC(C4)C2)C3)cc1Cl,i
Cc1ccc(N2CCN(S(=O)(=O)N(C)C)CC2)cc1C,i
C=CCn1c(SCC(=O)Nc2ccc(Cl)cc2Cl)nnc1-c1ccc([N+](=O)[O-])cc1,i
NC(=O)CSc1nnc2c3ccccc3n(CCc3ccccc3)c2n1,i
CCCC(=O)N1c2ccccc2NC2=C(C(=O)CCC2)C1c1cccnc1 (stereo not drawn),i
Cc1ccccc1NC(=O)CC1SC(N)=NC1=O (stereo not drawn),i
O=C(Nc1cc(-c2nc3ncccc3o2)ccc1Cl)c1ccc(Br)o1,i
CCc1ccc(-c2nnc3ccc4ccccc4n23)cc1,3.8%
CC(=O)c1ccc(NC(=O)c2cccc(Cl)c2Cl)cc1,i
CC1=C(C(=O)Nc2nc3ccccc3s2)C(c2ccc(F)cc2)C2=C(CCCC2=O)N1 (stereo not drawn),i
O=[N+]([O-])c1ccc(N2CCN(S(=O)(=O)c3ccc4ccccc4c3)CC2)c(C(F)(F)F)c1,1.8%
CCOC(=O)c1cccc(NC(=O)COc2ccccc2CC)c1,3.8%
CCOc1c(Cl)cc(C(=O)NC2CCS(=O)(=O)C2)cc1Cl (stereo not drawn),3.7%
Brc1c(OCCCn2ccnc2)ccc2ccccc12,1.56µg/mL*
CC(=O)c1ccc(COc2ccc(C=O)cc2)cc1,12.6%
CC(=O)Nc1cc(S(=O)(=O)C(F)(F)F)ccc1C,i
CCN(CC)CCCNC(=O)c1cc(-c2ccccc2)on1,i
CCn1ccnc1C(O)(c1ccccc1)c1ccc(C)cc1 (stereo not drawn),1.4%
O=C(OCc1ccccc1)c1ccc(OC(=O)C2CCCCC2)cc1,i
CCOc1ccc(NC(=O)c2cccc(C)c2[N+](=O)[O-])cc1,1.2%
Fc1ccc(N2CCN(C(=S)Nc3ccc(Nc4ccccc4)cc3)CC2)cc1,2.8%
COc1ccc(-n2c(SCC(=O)Nc3ccc(F)c(Cl)c3)nnc2-c2ccccc2)cc1,i
Cn1c(COc2ccccc2Cl)nnc1SCC(=O)N1c2ccccc2Sc2ccccc21,i
CCOc1ccc(S(=O)(=O)Nc2c(F)cccc2F)cc1,1.8%
COc1ccccc1CNC(=O)c1c(-c2ccccc2)noc1C,i
O=c1cc(/C=C/c2cccs2)[nH]c2ccccc12,1.5%
O=C(O)c1ccc(NS(=O)(=O)c2cccs2)cc1O,i
CC1=C(C#N)C(NC(=O)c2cccc([N+](=O)[O-])c2)(C(F)(F)F)C(=O)N1 (stereo not drawn),1.0%
O=C(Nc1ccccc1)Nc1ccc2c(c1)nc1n2CCN(Cc2ccccc2)C1,i
CN(C)S(=O)(=O)N1CCN(c2ccc([N+](=O)[O-])c(NC3CC3)c2)CC1,i
O=C(NCc1cccs1)c1cc(Br)ccc1Cl,i
O=C(O)c1ccccc1SC1CC(=O)N(c2ccc(Oc3ccccc3)cc2)C1=O (stereo not drawn),i
Cc1cc(C)c(OCCCSc2ncccn2)c(C)c1,1.3%
Oc1ccc(/C=N/N2CCN(Cc3ccc(Cl)cc3)CC2)c(O)c1,i
Fc1cc2[nH]c(=S)[nH]c2cc1N1CCOCC1,i
CCC(C)NC(=O)c1ccccc1NC(=O)COc1ccc(OC)cc1 (stereo not drawn),i
CCCC(=O)Nc1ccc(C(=O)Nc2ccc(OCc3ccccc3)cc2)cc1,i
CCOc1ccc(/C=C2\C(O)C3CCN2CC3)cc1 (stereo not drawn),i
O=C(CCC(=O)N1CCN(c2ccccc2F)CC1)N1CCN(c2ccccc2F)CC1,0.7%
COc1ccc(NC(=O)c2cncc(Br)c2)cc1Cl,i
NS(=O)(=O)c1ccc(CCNC(=O)NC23CC4CC(CC(C4)C2)C3)cc1,i
Cc1ccc(N2CCN(S(=O)(=O)N3CCOCC3)CC2)cc1Cl,i
CCn1c2ccc(C)cc2c2n[nH]c(=S)nc21,i
COc1ccc(OC)c(NC(=O)c2ccc(N(C)S(=O)(=O)c3ccccc3)cc2)c1,15.0%
Cc1cc(Cl)cc(C)c1OCCOCCN(C)C,i
COc1ccc(-n2nc3cc(C)c(NC(=S)NC(=O)c4cccc(Cl)c4)cc3n2)cc1Cl,1.4%
CCCCC(=O)Nc1ccc(NC(=O)c2ccc(C)cc2C)cc1OC,i
COc1cc(C2C3=C(CC(C)(C)CC3=O)Nc3[nH]c(=S)[nH]c(=O)c32)ccc1OCc1ccccc1 (stereo not drawn),i
CNC(=O)C12CCC(C)(C(=O)C1)C2(C)C (stereo not drawn),i
Cc1sc2ncn(C)c(=O)c2c1-c1ccc(Cl)cc1,i
CC(C)C(=O)Nc1nnc(SC/C=C/c2ccccc2)s1,2.5%

# 4 structures from above, sorted by formula weight, lowest first:
SMILES,Mtb growth
CCn1c2ccc(C)cc2c2n[nH]c(=S)nc21,i
Cc1ccc(N2CCN(S(=O)(=O)N3CCOCC3)CC2)cc1Cl,i
COc1ccc(OC)c(NC(=O)c2ccc(N(C)S(=O)(=O)c3ccccc3)cc2)c1,15.0%
COc1ccc(-n2nc3cc(C)c(NC(=S)NC(=O)c4cccc(Cl)c4)cc3n2)cc1Cl,1.4%

# The listing picks up; the five compounds before the break are reprinted first.
SMILES,Mtb growth
CCCCC(=O)Nc1ccc(NC(=O)c2ccc(C)cc2C)cc1OC,i
COc1cc(C2C3=C(CC(C)(C)CC3=O)Nc3[nH]c(=S)[nH]c(=O)c32)ccc1OCc1ccccc1 (stereo not drawn),i
CNC(=O)C12CCC(C)(C(=O)C1)C2(C)C (stereo not drawn),i
Cc1sc2ncn(C)c(=O)c2c1-c1ccc(Cl)cc1,i
CC(C)C(=O)Nc1nnc(SC/C=C/c2ccccc2)s1,2.5%
CCOC(=O)C1CCN(C(=O)CN(c2ccccc2OCC)S(=O)(=O)c2ccc(C)cc2)CC1,i
CC1CC(O)(c2ccccc2)C(C)CN1C (stereo not drawn),2.8%
COC(=O)c1ccc(COc2cc(C)cc3oc(=O)c(C)c(C)c23)cc1,i
Cc1ccc(CNC(=O)Cc2ccc(C)cc2)cc1,9.8%
COc1ccc(C(Nc2ncnc3c2ncn3C2CC=C(CO)CC2)(c2ccccc2)c2ccccc2)cc1 (stereo not drawn),i
COc1ccc(CCNC(=O)CSc2nc3sc4c(c3c(=O)[nH]2)CCC4)cc1OC,i
CC(=O)Nc1ccc(NC(=O)CN(c2cccc(C)c2C)S(=O)(=O)c2ccccc2)cc1,i
COC(=O)c1c(C)oc2ccc(OC(=O)c3cccs3)cc12,?
Cc1cc(Cl)ccc1NC(=O)c1ccccc1N(C)S(C)(=O)=O,i
CN(C)CCNC(=O)c1cc(-c2ccccc2)nc2ccccc12,i
O=C(CCCOc1ccc(Cl)cc1)Nc1ccccc1Cl,i
CCOc1ccccc1NS(=O)(=O)c1ccc(OC)c(C)c1,i
COCCCNS(=O)(=O)c1ccc(SC)cc1,i
